Compound activity deposited in PubChem BioAssay by several laboratories.
Vif A3G = HIV-1 Vif–A3G interaction blockers – biochemical, TR-FRET, GST-Vif 1-94, biotin-A3G peptide, dose response retest, primary screen (AID 1117319) | hit rate 0.57% among 260,000 | inhibition, %, or IC50 in µM where a hit was titrated | TR-FRET GST-Vif / biotin-A3G peptide binding; higher % means a stronger effect; test concentration not given here; strong numbers were not always called active;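 active = above the screen mean plus three standard deviations and confirmed in dose response; inconclusive = results disagree or hit not tested in dose response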;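 note: Vif residues 1-94 fused to GST binding biotinylated APOBEC3G peptide 110-148; 0% = full assay without inhibitor and 100% = GST in place of GST-Vif; retest series ran down from 100 µM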
AF4-AF9 inh = blocks AF4 peptide binding to human AF9; inhibition, % at 10 µM; AID 651704; P42568; hit rate 0.47% among 350,000; AlphaScreen, biotin-AF4 peptide binding to FLAG-AF9;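 active = every replicate reaching a set inhibition limit, whatever the replicate mean, cut at about 25% in these data; inconclusive = mean inhibition reaches that limit but some replicates miss it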;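 note: 0% = plate neutral control median and 100% = total signal loss; the record names both 10 and 1 µM as test concentration; the first replicate is given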
Target sequence (P42568 whole entry, looked up): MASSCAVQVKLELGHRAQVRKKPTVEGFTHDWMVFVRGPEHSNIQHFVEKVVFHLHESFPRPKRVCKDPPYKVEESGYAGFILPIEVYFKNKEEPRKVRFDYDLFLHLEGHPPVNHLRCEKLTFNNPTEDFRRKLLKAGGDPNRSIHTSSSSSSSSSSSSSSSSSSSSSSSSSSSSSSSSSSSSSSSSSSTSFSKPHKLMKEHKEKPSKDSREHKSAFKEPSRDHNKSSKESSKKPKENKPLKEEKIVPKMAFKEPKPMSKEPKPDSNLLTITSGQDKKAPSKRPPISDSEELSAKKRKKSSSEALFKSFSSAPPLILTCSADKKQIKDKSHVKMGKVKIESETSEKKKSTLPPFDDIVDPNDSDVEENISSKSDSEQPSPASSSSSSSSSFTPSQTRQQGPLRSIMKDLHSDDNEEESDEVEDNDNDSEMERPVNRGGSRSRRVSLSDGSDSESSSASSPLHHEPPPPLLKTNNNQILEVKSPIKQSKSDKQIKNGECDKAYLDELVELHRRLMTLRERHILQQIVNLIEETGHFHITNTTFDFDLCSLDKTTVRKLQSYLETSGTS
E coli growth = E. coli growth inhibition | Escherichia coli growth, OD600, 23 h; stronger effect = lower value | OD600 absorbance (no concentration beside the values) | hit rate 0.21% among 330,000;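 active = OD600 absorbance below the run mean of sample wells minus 3.6 SD, in any replicate, cut at about 0.56 in these data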;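 note: stock transfer was 300 nL into about 60 µL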
FGF22 binding = shifts melting point of recombinant human FGF22; calls only at 9.99 µM; recombinant FGF22 thermal shift, SYPRO orange fluorescence; percent of sucrose octasulfate shift, DMSO zero; Q9HCT0; AID 651658; hit rate 1.5% among 340,000;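 active = melting point raised past a set limit in the mean and every replicate; inconclusive = no clear call; three in four hits are not shown here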
UCH37 inh = blocks the human deubiquitinase UCH37. Q9Y5K5. purified proteasome/UCH37, Ub-AMC cleavage fluorescence. inhibition, % (test concentration not listed). hit rate 0.33% among 330,000. AID 588478;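 active = mean of two replicates above 20%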;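 note: 0% = compound-free wells with enzyme and 100% = wells lacking proteasome; stock transfer was 100 nL into about 20 µL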
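System: Proteasome-associated human UCH37 deubiquitinase; Input: 0.15 nM proteasome in added enzyme buffer; Also added: Ub-AMC substrate from 1 µM stock; Incubation: 30 min compound-proteasome preincubation then 25 min substrate reaction, room temperature; Detection: fluorescence, ex 355 nm, em 460 nm; Read-out: % inhibition of Ub-AMC cleavage fluorescence; Benchmarks: no-proteasome and no-compound wells.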
RanGTP-Imp inh = disruptors of Ran-importin-beta complex formation – biochemical, FRET, CFP-Ran, YFP-importin-beta, homogeneous, primary screen; cell-free CFP-Ran/YFP-importin-beta FRET ratio; inhibition, % (no concentration beside the values); hit rate 1.1% among 300,000; AID 2216;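 active = most replicates above 15%; inconclusive = exactly half above 15%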;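 note: 0% = DMSO wells and 100% = Ran loaded with GDP instead of GTP; wells of about 40 µL received 100 nL stock; the first replicate is given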
HNF4A DNA FP = change in binding of human HNF4 alpha to DNA | P41235 | HNF4a-FITC DNA binding, fluorescence polarization, 1 h | activity change, % at 10 µM | hit rate 0.3% among 360,000; in the data active = activity change above about 30%, passing the limit was not always enough;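 note: controls were the assay level and a saturating level of protein; the project sought stronger binding though the title names inhibitors; some compounds called inactive have numbers as strong as hits; positive values seem to mean higher polarization but the record does not say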
Target sequence (P41235 whole entry, looked up): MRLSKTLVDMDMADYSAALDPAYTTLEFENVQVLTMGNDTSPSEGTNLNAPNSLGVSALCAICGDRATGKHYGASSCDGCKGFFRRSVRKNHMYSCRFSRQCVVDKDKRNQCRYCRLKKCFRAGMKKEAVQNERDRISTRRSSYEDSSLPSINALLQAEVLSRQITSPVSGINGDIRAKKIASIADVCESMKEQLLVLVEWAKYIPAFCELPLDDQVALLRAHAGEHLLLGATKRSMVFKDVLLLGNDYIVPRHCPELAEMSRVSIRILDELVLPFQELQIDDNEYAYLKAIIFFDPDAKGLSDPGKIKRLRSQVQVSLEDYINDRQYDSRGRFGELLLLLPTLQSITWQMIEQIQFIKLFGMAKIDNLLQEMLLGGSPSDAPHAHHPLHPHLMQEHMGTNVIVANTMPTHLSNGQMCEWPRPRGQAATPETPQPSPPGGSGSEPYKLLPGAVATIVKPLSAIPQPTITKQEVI
* = called active by the depositor; i = inactive; ? = inconclusive; nt = no result given; & = joins results of further samples. This is a subset; rates above refer to the full screens.

SMILES | Vif A3G | AF4-AF9 inh | E coli growth | FGF22 binding | UCH37 inh | RanGTP-Imp inh | HNF4A DNA FP
CC(C)C(=O)NN(C(=O)C(C)C)c1nc2ccccc2s1 | -2.0% | 0.1 | 0.654 | i | 5.8 | -0.7 | -3.7
O=C1NC(=O)/C(=C\c2ccsc2)N1 | 2.7% | -2.0 | 0.711 | i | 4.2 | ? | -6.0
O=C(CC(c1ccccc1)c1ccccc1)NCC1CCCO1 (stereo unspecified) | -1.4% | nt | 0.71 | nt | 1.7 | ? | -1.6
CC1CCCN(CCCNC(=O)c2nn(C)c3c2CS(=O)(=O)c2ccccc2-3)C1 (stereo unspecified) | -0.4% | 1.6 | 0.721 | i | 3.8 | -1.0 | -1.3
Cc1ccc(NS(=O)(=O)c2ccc3c(c2)NC(=O)C(C)C(=O)N3)c(Br)c1 (stereo unspecified) | nt | -0.2 | 0.78 | i | 2.9 | 2.7 | -2.3
CC(C)NC(=O)C1CCN(C2CCN(C(=O)Cc3ccc4c(c3)OCO4)CC2)CC1 | -10.7% | -1.8 | 0.688 | i | -0.7 | -2.1 | -2.0
O=C1OCCC1Sc1nc2cc(Cl)ccc2s1 (stereo unspecified) | ? | nt | 0.634 | nt | 0.5 | -1.0 | -0.4
CC(=O)C1=C(O)CCC1=N | 23.9% | nt | 0.739 | nt | 1.2 | 4.5 | 2.5
Cc1noc(C)c1COc1ccc(C(=O)N2CCN(c3ccccc3O)CC2)cc1 | 4.7% | -8.0 | 0.672 | i | 2.8 | nt | -0.1
O=C(OCC(=O)N1CCCCC1)c1cccs1 | -0.9% | -0.7 | 0.659 | i | 0.8 | nt | -0.4
C/C=C(/C)C(=O)OC1c2c(ccc3ccc(=O)oc23)OC(C)(C)C1OC(C)=O (stereo unspecified) | nt | nt | 0.684 | nt | -8.7 | -3.5 | 1.1
CC1(C)CC(=O)C2=C(C1)OC(N)=C(C#N)C2C1C=CCCC1 (stereo unspecified) | 9.0% | nt | 0.755 | nt | 3.9 | 0.0 | 1.7
Cc1ccc(S(=O)(=O)N(C)C)cc1NC(=S)NC1CCCC(C)C1C (stereo unspecified) | 3.8% | nt | 0.646 | nt | 1.5 | 2.7 | 2.7
COc1cc2c(cc1OC)CN(C(=O)Nc1ccccc1Cl)CC2 | 1.1% | 3.0 | 0.663 | i | -24.5 | 1.2 | 0.5
Cc1cc(S(=O)(=O)N2CCOCC2)ccc1OCC(=O)Nc1ccccc1F | -3.6% | -1.9 | 0.7 | i | 1.1 | 3.6 | 2.0
CS(=O)(=O)N(CCc1ccccc1)CC(=O)Nc1ccccc1 | -3.5% | 13.2 | 0.656 | i | 0.4 | 1.8 | -4.5
Cc1cccc(NC(=O)C2CCN(S(=O)(=O)c3c(C)[nH]c(=O)[nH]c3=O)CC2)c1 | 25.8% | nt | 0.716 | nt | -1.2 | 0.6 | 4.7
Cn1c(=O)c2c(nc(NCc3ccco3)n2CC(O)CO)n(C)c1=O (stereo unspecified) | 6.2% | -0.3 | 0.654 | i | -1.3 | -2.2 | -5.8
COc1ccc(Br)c(Cn2c(C)c(C(=O)NCCC#N)sc2=O)c1 | nt | -0.1 | nt | i | nt | nt | -3.6
COc1ccc2sc(-c3ccccc3OC)c(-c3ccc4c(c3)OCCO4)c2c1 | nt | 7.1 | 0.667 | i | 2.6 | nt | 2.7

Brought forward from above: 3 entries; new compounds follow.
SMILES | Vif A3G | AF4-AF9 inh | E coli growth | FGF22 binding | UCH37 inh | RanGTP-Imp inh | HNF4A DNA FP
Cn1c(=O)c2c(nc(NCc3ccco3)n2CC(O)CO)n(C)c1=O (stereo unspecified) | 6.2% | -0.3 | 0.654 | i | -1.3 | -2.2 | -5.8
COc1ccc(Br)c(Cn2c(C)c(C(=O)NCCC#N)sc2=O)c1 | nt | -0.1 | nt | i | nt | nt | -3.6
COc1ccc2sc(-c3ccccc3OC)c(-c3ccc4c(c3)OCCO4)c2c1 | nt | 7.1 | 0.667 | i | 2.6 | nt | 2.7
CCn1c2ccccc2c2cc(/C=N/O)ccc21 | 2.3% | 8.0 | nt | i | nt | -1.4 | 4.2
CC(C)(C)C1c2[nH]c3ccccc3c2CCN1CCCn1cccn1 (stereo unspecified) | nt | nt | 0.695 | nt | -17.6 | -5.8 | 1.8
N/C(CCN1CCOCC1)=N/O | 25.3% | nt | nt | nt | nt | -2.8 | 4.6
CC(C)CC(=O)NN1CCCCC1 | -4.0% | nt | 0.782 | nt | 5.7 | 8.8 | 0.3
CCCC(C)C(=O)Nc1ccc(Cl)cn1 (stereo unspecified) | -9.0% | nt | 0.715 | nt | 0.2 | 1.7 | 1.9
Cc1ccc2nc(-c3ccc(NS(=O)(=O)c4ccccc4)cc3)sc2c1 | nt | -3.5 | 0.692 | i | -79.8 | -4.3 | -2.4
Cc1ccc(CNC(=O)C2CCCN2C(=O)Nc2cccc(Cl)c2)cc1 (stereo unspecified) | nt | -1.1 | 0.718 | i | 5.4 | 0.9 | 0.1
Cc1cc(-c2nnc(CCC(=O)NCc3ccc(F)c(F)c3)o2)no1 | 7.2% | -1.8 | 0.691 | i | -0.9 | -0.2 | 4.4
CCOC(=O)C1=CN(Cc2ccco2)S(=O)(=O)N(CC)C1c1ccc(C(F)(F)F)cc1 (stereo unspecified) | 7.8% | -1.5 | 0.733 | i | 2.2 | nt | -3.2
O=C(COc1ccc2ccccc2c1Br)Nc1ncn[nH]1 | -5.7% | -5.4 | 0.724 | i | 1.7 | ? | -1.4
COc1ccc([C@H]2CC(=O)C=C(c3cc4ccccc4s3)C2)cc1 | nt | -3.0 | 0.796 | i | -3.1 | nt | -1.4
COc1cc(-c2nnc(SCC(=O)N3CCCC3)o2)cc(OC)c1OC | 0.6%&15.9% | nt | 0.721 | nt | 0.9 | 1.0 | -1.1
O=C(COc1ccc(Br)cc1CNC1CCCCC1)NCCc1ccccc1 | -6.5% | -3.8 | 0.674 | i | 3.9 | -2.2 | -3.8
CCOC(=O)c1c(C)nc2ccccc2c1C | -5.0% | nt | 0.771 | nt | 4.1 | -6.9 | -3.6
Cc1c(NC(=O)Nc2cccc(Cl)c2)c(=O)n(-c2ccccc2)n1C | 6.7% | nt | 0.72 | nt | 1.6 | 1.9 | 4.8
O=C(Nc1ncccc1O)c1ccc(C(=O)c2ccccc2)cc1 | -2.8% | -2.4 | 0.684 | i | 5.0 | -5.0 | 1.9
CCN(CC(=O)Nc1c(F)cccc1F)C(=O)c1cccc(S(=O)(=O)N2CCN(c3ccccc3)CC2)c1 | nt | -3.0 | 0.707 | i | 1.5 | 0.5 | 2.6
CCn1c(SCC(N)=O)nc2sc3c(c2c1=O)CCCC3 | -3.0% | nt | 0.746 | nt | -1.2 | 3.3 | 3.5
CC1CC(C)CN(C(=O)CCc2ccccc2)C1 (stereo unspecified) | -0.6% | -2.0 | 0.73 | i | 2.4 | 8.3 | 0.1
CC(NC(=O)Nc1ncccn1)(C(F)(F)F)C(F)(F)F | -7.6% | nt | 0.75 | nt | -2.4 | -0.2 | -4.0
Cc1ccc(S(=O)(=O)Nc2ccc(-c3nnc(SCC#N)n3C)cc2)cc1 | 0.5% | nt | 0.667 | nt | 6.0 | 1.3 | -0.8
O=C(N/N=C\c1ccc([N+](=O)[O-])s1)C1COc2ccccc2O1 (stereo unspecified) | -0.5% | 10.0 | nt | i | nt | 0.5 | 8.7
CS(=O)(=O)c1ccc(Cl)c(NC(=O)c2cccc(-n3cnnn3)c2)c1 | 6.2% | -0.9 | 0.678 | i | 2.3 | -0.6 | 1.9
COCCCNC(=O)Cn1cc(/C=C(\C#N)C(=O)NC2CCCC2)c2ccccc21 | nt | -6.5 | 0.686 | i | -43.1 | 6.6 | -1.9
O=C1C2C3C=CC(C4CC34)C2C(=O)N1/N=C/c1ccc(-c2ccccc2[N+](=O)[O-])o1 (stereo unspecified) | -1.7% | nt | nt | nt | nt | 3.1 | 7.8
COc1ccc(CCNC(=O)CN2CCN(c3ccccc3Cl)CC2)cc1 | -1.1% | nt | 0.73 | nt | 2.4 | 0.8 | 0.3
COc1ccc(NC(=O)CSc2nnc(CN3CCOCC3)n2C)cc1Cl | nt | 3.3 | 0.686 | i | 6.1 | 1.2 | -6.3
Cc1ccc(SCC(=O)N2CCN(c3ccc(F)cc3)CC2)cc1 | nt | -0.3 | nt | i | nt | nt | 4.6
CC(OC(=O)/C=C/c1ccccc1)C(=O)Nc1cccc(C#N)c1 (stereo unspecified) | -2.0% | -1.3 | 0.658 | i | 1.6 | -1.8 | 1.3
CCC(=O)NC(=S)Nc1ccc(NC(=O)c2cccnc2)cc1 | -6.9% | 0.8 | 0.667 | i | 5.2 | ? | 0.6
CCOC(=O)c1cnc2c(Cl)cccc2c1NCCCN1CCOCC1 | nt | -1.4 | 0.674 | i | 7.7 | 1.7 | -1.9
O=C1CC(c2ccco2)CC(O)=C1C=NCCO (stereo unspecified) | ? | nt | 0.714 | nt | 0.8 | 1.1 | -1.8
COP(=O)(OC)OC(C(=O)c1ccccc1)c1ccccc1 (stereo unspecified) | nt | -0.4 | nt | i | nt | nt | 2.8
O=C(CSC1=NCCS1)N1CCc2ccccc21 | 5.9% | nt | 0.674 | nt | 5.0 | 11.4 | -3.9
COc1ccccc1NCN1C(=O)CCC1=O | nt | 7.2 | 0.755 | i | 7.4 | 2.5 | -3.8
COc1ccccc1C1NC(c2ccccc2OC)C(C)C(=O)C1C (stereo unspecified) | 71.0% | nt | 0.691 | nt | 2.5 | -0.9 | 1.9
CCCn1c(C)cc(C(=O)CN2C(=O)NC3(CCCCCC3)C2=O)c1C | -13.0% | 0.0 | nt | i | nt | nt | 2.0
CC1CCc2cccc3c2N1c1cc(C#N)c(C#N)cc1O3 (stereo unspecified) | 9.4% | -3.6 | 0.748 | i | -6.4 | 4.1 | 1.7
COc1ccccc1OCC(=O)Nc1ccc(C(=O)Nc2ccccc2C(=O)O)cc1 | -4.0% | 0.3 | nt | i | nt | nt | -2.5
O=C1CC(c2ccccc2)CN1Cc1ccccc1 (stereo unspecified) | -0.5% | nt | 0.702 | nt | 2.2 | 2.6 | 8.5
O=C(NCC1CCCO1)c1sc2cc(Cl)ccc2c1Cl (stereo unspecified) | 8.4% | nt | 0.684 | nt | 2.1 | 3.2 | 4.0
Cc1cc(C)c2nc(SCC(=O)Nc3cc(C)on3)c(C#N)cc2c1 | nt | -4.5 | 0.651 | i | -13.8 | 1.3 | 8.0
CC(=O)Nc1ccc2nc(NC(=O)COc3cccc(C)c3)sc2c1 | -9.7% | -8.7 | 0.675 | i | 3.1 | 3.4 | -1.5
CC(C)OCCCNc1ncc2c(n1)CC(c1ccc(N(C)C)cc1)CC2=O (stereo unspecified) | -0.2% | nt | 0.691 | nt | -1.3 | 2.4 | 1.5
CNC(=O)c1nnc(Cc2ccc(F)cc2)o1 | -5.8% | -3.4 | 0.71 | i | 7.9 | 1.3 | -4.0
COc1cccc(C(=O)N2CCN(C3CCC(c4ccccc4)CC3)CC2)c1 (stereo unspecified) | 21.8% | nt | 0.694 | nt | 4.0 | -2.3 | -1.0
COc1ccc(N2C(=O)CC(N3CCN(S(=O)(=O)c4ccc(Cl)cc4)CC3)C2=O)cc1 (stereo unspecified) | -2.9% | -0.3 | 0.633 | nt | -0.4 | -1.9 | -0.2

Quoted at random: 2 records from the list
SMILES | Vif A3G | AF4-AF9 inh | E coli growth | FGF22 binding | UCH37 inh | RanGTP-Imp inh | HNF4A DNA FP
CC(=O)Nc1ccc2nc(NC(=O)COc3cccc(C)c3)sc2c1 | -9.7% | -8.7 | 0.675 | i | 3.1 | 3.4 | -1.5
CC(C)OCCCNc1ncc2c(n1)CC(c1ccc(N(C)C)cc1)CC2=O (stereo unspecified) | -0.2% | nt | 0.691 | nt | -1.3 | 2.4 | 1.5
